Source: PubChem BioAssay (National Center for Advancing Translational Sciences (NCATS))
Vaccinia Venus: inhibitors of vaccinia virus (Venus reporter); Vaccinia virus Venus reporter expression, fluorescence; actives 0.46% (n = 330,000); Potency, µM (highest dose often 36.5 µM), for the others: at the top dose activity change, negative = inhibition, hits mostly inhibitors; active means well fitted inhibition curve with a large enough effect; inconclusive means small, poorly fitted or top-dose-only effect; inactive means no such curve, though single readings can be large or run the other way; tested in A549 cells; also: nearly all actives have a fitted effect of over 30% in size; inactives centre near -10
VACV mCherry inh: vaccinia inhibition (mCherry reporter); actives 0.63% (n = 310,000); Potency, µM (titrated, usually from 36.5 µM), without a hit: at the highest dose activity change, negative = inhibition, usual class: inhibitors; Vaccinia virus mCherry reporter infection, fluorescence; about a quarter of the inactives have no number; active = well fitted inhibition curve with a large enough effect; inconclusive = small, poorly fitted or top-dose-only effect; inactive = no such curve, though single readings can be large or run the other way; tested in A549 cells; also: nearly all actives have a fitted effect of over 35% in size; inactives centre near -10
Active calls of the source: *; i = inactive; ? = inconclusive; . = no result given; [ ] = remark or other dose. % is scaled to controls: 0 for no effect and ±100 for the full control effect; potency is read from the fitted curve at half-maximal effect.

SMILES | Vaccinia Venus | VACV mCherry inh
O=C(O)c1ccc(-n2cc(-c3cc4ccccc4oc3=O)[nH]c2=S)cc1 | 3% | -7%
O=C(OCc1ccccc1)N1CCC2CC1c1cc(N3CCNCC3)ccc12 (stereo unspecified) | -23% | -8%
CCOC(=O)/C(C(N)=NC)=C(\O)c1ccccc1 | 7% | .
COc1cccc2cc(C(C)N(CCCN3CCOCC3)C(=S)Nc3ccc(C)c(C)c3)oc12 (stereo unspecified) | -21% | -16%
CC(C)(C)n1cnc2cc(NCc3ccccc3O)ccc21 | -20% | -23%
CCCn1nc(-c2ccccc2)c2nc3ccccc3nc21 | -23% | .
COc1ccc(OC)c(-c2cc(C(=O)Nc3c(C)nn(Cc4ccccc4)c3C)no2)c1 | ? | ?
CCOC(=O)C1C(=O)CC(=O)C(C(=O)OCC)C1c1ccc(O)cc1 (stereo unspecified) | -12% | i
CC(C)Oc1ccc2ccccc2c1CNC[C@H]1O[C@@H](n2cnc(C(N)=O)n2)[C@H](O)[C@@H]1O | -3% | -23%
CCOc1ccc(-c2[nH]nc3c2C(c2ccc(O)cc2)C(C#N)=C(N)O3)cc1 (stereo unspecified) | -13% | -3%
CS(=O)(=O)c1[nH]nc(-c2cccc(Cl)c2)c1C#N | 1% | -23%
COC(CNC(=O)CCc1c(C)nc2c(-c3ccccc3)c(C)nn2c1C)OC | -15% | -9%
Cc1cccc(OCC(=O)N2CCN(C(=O)c3ccc([N+](=O)[O-])cc3)CC2)c1 | 3% | i
COc1ccc(C/C(N)=N/n2cnnc2)cc1 | 1% | -12%
CC1(C)CC(NC(=O)c2ccc3c(c2)OCO3)CC(C)(C)N1 | -20% | .
COC(=O)c1cn(-c2ccccc2)nc1-c1ccccc1 | -11% | .
Cc1ccc(C=C(C#N)C(=O)c2ccccc2)cc1 | -3% | i
O=C(NCc1cccnc1)c1ccc(Cl)c(S(=O)(=O)Nc2ccccc2C(=O)NCc2cccnc2)c1 | -6% | -16%
COc1ccccc1Oc1coc2cc(O)ccc2c1=O | -12% | .
Cc1ccc(CNC(=O)c2nc(SCc3ccccc3C)ncc2Cl)cc1 | -7% | -8%
O=c1c(Cc2c(F)cccc2Cl)c(O)ccn1Cc1ccc2c(c1)OCO2 | -12% | i
CCOC(=O)Cc1csc(NC(=O)COc2c(C)cccc2C)n1 | -8% | i
CCOC(=O)CSc1nnc2n(-c3ccccc3)c(=O)c3c4c(sc3n12)COC(C(C)C)C4 (stereo unspecified) | -4% | -16%
CCCc1cc(=O)[nH]c(SCC(=O)c2cc(C)n(-c3c(C)n(C)n(-c4ccccc4)c3=O)c2C)n1 | 0% | 7%
C=CCN1CCN(C(c2cccc(OC)c2OC)c2nnnn2CCC(C)C)CC1 (stereo unspecified) | -11% | -25%

Record cards (already shown). Order of screens: Vaccinia Venus | VACV mCherry inh
Shown for COc1cccc2cc(C(C)N(CCCN3CCOCC3)C(=S)Nc3ccc(C)c(C)c3)oc12 (stereo unspecified) → -21% | -16%
Shown for CCOC(=O)/C(C(N)=NC)=C(\O)c1ccccc1 → 7% | .
Shown for O=c1c(Cc2c(F)cccc2Cl)c(O)ccn1Cc1ccc2c(c1)OCO2 → -12% | i
Shown for COC(CNC(=O)CCc1c(C)nc2c(-c3ccccc3)c(C)nn2c1C)OC → -15% | -9%
Shown for CCOc1ccc(-c2[nH]nc3c2C(c2ccc(O)cc2)C(C#N)=C(N)O3)cc1 (stereo unspecified) → -13% | -3%

Following part
SMILES | Vaccinia Venus | VACV mCherry inh
CCn1c(COc2cccc3ccccc23)nnc1SCC(=O)OC1CCCCC1 | -2% | -15%
Cc1ccc(S(=O)(=O)Cc2nc(-c3ccc(C(=O)NCc4ccccc4C)cc3)oc2C)cc1 | -13% | -17%
Nc1cc(N2CCCCC2)nc(N)[n+]1OS(=O)(=O)[O-] | -9%[60.7 µM] | i
C[C@H]1CN([C@@H](C)CO)C(=O)CCCn2nncc2CO[C@@H]1CN(C)Cc1cccc(O)c1 | -10% | -4%
CN(CC(=O)Nc1ccncc1)S(=O)(=O)c1ccccc1 | 13% | .
COCCN(C(=O)COC(=O)/C=C/c1ccc(C(F)(F)F)cc1)c1c(N)n(Cc2ccccc2)c(=O)[nH]c1=O | ? | 13µM*
O=C(c1ccccc1)c1ccc(-c2ccc(O)cc2)cc1 | -21% | ?
CN(Cc1ccc(Br)s1)C(=O)CNC(=O)c1ccc2c(c1)OCO2 | -13% | -3%
COCCn1c(SCC(=O)N2CCCc3ccccc32)nnc1-c1ccoc1C | 3% | -7%
CCOc1cccc2cc(C(=O)N3CCc4ccccc4C3)c(=O)oc12 | -1% | i
NS(=O)(=O)c1ccc(NC(=O)COc2ccc(S(=O)(=O)N3CCCC3)cc2)cc1 | -2% | -10%
CCOC(=O)c1ccc(CN(Cc2ccc(C)cc2)S(=O)(=O)c2cccc([N+](=O)[O-])c2)cc1 | -8% | -14%
O=C1OCCN1C(=O)[C@H]1[C@H](c2ccccc2)C(c2ccc(F)cc2)=NN1c1ccc(Br)cc1 | -8% | -8%
C[C@@H]1ON(C)[C@H]2C[C@H]3c4[nH]c5ccc(-c6ccc7c(c6)OCO7)cc5c4CCN3C(=O)[C@@H]12 | -30% | -26%
CC(C)(C)n1nnnc1C(c1cc2ccccc2o1)N1CCC2(CC1)C(=O)NCN2c1ccccc1 (stereo unspecified) | -5% | i
NC(=O)c1c(N)[nH]c(C(=O)c2ccccc2)c1-c1ccncc1 | -1% | -5%
C[C@@H]1CCCCO[C@H](CN(C)S(=O)(=O)c2cn(C)cn2)[C@@H](C)CN([C@H](C)CO)C(=O)c2cc(NC(=O)c3ccncc3)ccc2O1 | -7% | -6%
CC(O)CC(=O)NOCc1ccccc1 (stereo unspecified) | -11% | i
CCCC(=O)N1c2nc(-c3ccco3)nn2C2(CCCCC2)[C@@H]2CCCC[C@@H]21 | -20% | -5%
Cc1ccc(-n2c(=O)[nH]c3cc(C(=O)NCc4ccccc4)ccc3c2=O)cc1 | -10% | -10%
O=C(CCc1nc2ccccc2c(=O)[nH]1)N1CCN(S(=O)(=O)c2ccccc2Br)CC1 | 10µM* | ?
Cn1nc(C(C)(C)C)cc1C(=O)N1CCCCC1c1cc(C(=O)Nc2ccccc2Cl)no1 (stereo unspecified) | -29% | -21%
O=C(Nc1nccs1)c1ccc(N2CCOCC2)c([N+](=O)[O-])c1 | -15% | -2%
COc1cccc(C(=O)Nc2ccccc2-c2nnc(-c3cc(OC)ccc3Br)o2)c1 | -5% | -10%
O=C(NC(=S)NCCC1=CCCCC1)c1ccc(Br)o1 | -12% | -23%
The results go on:
SMILES | Vaccinia Venus | VACV mCherry inh
O=S(=O)(c1cccc2nsnc12)N1CCOCC1 | -13% | -17%[1.46 µM]
CCOc1ccc(OCC(=O)N(C)c2c(N)n(Cc3ccccc3)c(=O)[nH]c2=O)cc1 | -5% | -8%
COc1cc(OC)cc(C(=O)N[C@H](C(=O)NCc2ccco2)C(C)C)c1 | -19% | -5%
CCC(=O)Nc1c2c(nn1-c1ccc(C)cc1C)CSC2 | -17% | -18%
CC(=O)Nc1ccc(NC(=O)c2ccccc2CCc2ccccc2)cc1 | 4% | i
COC(=O)c1ccc(NC(=O)CSc2nnc(COc3ccccc3)n2C)cc1 | -19% | .
CCN(Cc1ccccc1)Cc1c(F)cccc1F | -5% | i
CCc1cccc2c1NC(=O)C2(O)CC(=O)c1cccs1 (stereo unspecified) | -2% | -23%
O=C(Nc1ccc(F)c([N+](=O)[O-])c1)N1C[C@H]2C[C@@H](C1)c1cccc(=O)n1C2 | -2% | -14%
CSc1ccccc1NC(=O)c1ccc(Br)o1 | -15% | -25%
COc1cccc(NC(=O)c2oc3ccccc3c2NC(=O)C2CC2)c1 | -6% | -12%
NS(=O)(=O)c1ccc(NC(=O)COC(=O)Cc2c[nH]c3ccccc23)cc1 | -3% | i
O=c1c2c3c(sc2n2cnnc2n1CCc1ccccc1)CCCC3 | -20% | -1%
O=c1cc(CO)oc(C(Nc2ccccn2)c2cccc(F)c2)c1O (stereo unspecified) | -2% | i
CCc1cccc(NC(=O)Cn2c(=O)n(CCc3ccc(OC)c(OC)c3)c(=O)c3ccccc32)c1 | -17% | -12%
Cc1cc2ncn(C(=O)c3cc(-c4ccccc4)nc4ccccc34)c2cc1C | -4% | i
Cc1ccccc1C(=O)N/N=C/c1ccc([N+](=O)[O-])s1 | ? | -22%
Cc1ccc(-n2c(C)cc(C)c(C#N)c2=O)cc1 | -1% | -2%
COc1ccc2oc(C(=O)NCCc3ccccc3)c(C)c2c1 | 2% | i
CNC(=O)c1ccc(Nc2nnc(-c3ccc(C)c(S(=O)(=O)NC(C)(C)C)c3)c3ccccc23)cc1 | -3% | -15%
COc1ccc2c(c1)CCc1cnc(-n3ncc(C(=O)NCc4cc(C)no4)c3C3CC3)nc1-2 | -18% | ?
O=C(CS(=O)(=O)c1c[nH]c2ccccc12)N1CCCCC1 | -1% | -11%
NC(COCc1ccccc1)c1csc(Nc2ccc(C(=O)NCCO)cc2)n1 (stereo unspecified) | -17% | i
CC(C)CCNC(=O)C(c1ccncc1)N(C(=O)Cn1nnc(-c2ccc(F)cc2)n1)c1ccccc1F (stereo unspecified) | -10% | -6%
CCCOc1ccc(/C(O)=C2/C(=O)C(=O)N(CCN(C)C)C2c2ccco2)cc1 (stereo unspecified) | -7% | .

Ordered by molar mass (smallest number first): some entries from above.
SMILES | Vaccinia Venus | VACV mCherry inh
O=C(c1ccccc1)c1ccc(-c2ccc(O)cc2)cc1 | -21% | ?
Cc1cc2ncn(C(=O)c3cc(-c4ccccc4)nc4ccccc34)c2cc1C | -4% | i
COCCn1c(SCC(=O)N2CCCc3ccccc32)nnc1-c1ccoc1C | 3% | -7%
Cc1ccc(S(=O)(=O)Cc2nc(-c3ccc(C(=O)NCc4ccccc4C)cc3)oc2C)cc1 | -13% | -17%
COCCN(C(=O)COC(=O)/C=C/c1ccc(C(F)(F)F)cc1)c1c(N)n(Cc2ccccc2)c(=O)[nH]c1=O | ? | 13µM*

The results go on.
SMILES | Vaccinia Venus | VACV mCherry inh
O=S(=O)(c1ccc(Br)cc1)c1nc(-c2ccco2)oc1NCC1CCCO1 (stereo unspecified) | -7% | -15%
COc1ccc(OC)c(S(=O)(=O)N2c3ccccc3CC2C)c1 (stereo unspecified) | -8% | -14%
Cc1ccc2nc(COc3cccc(NC(=O)COc4ccc(F)cc4)c3)cc(=O)n2c1 | -11% | i
Cc1ccc(Sc2ncccc2C(=O)NC2CCCCCC2)cc1C | 0% | i
CCCCn1cc(S(=O)(=O)c2ccc(C)c(C)c2)c(=O)c2cc(F)c(N(CC)CC)cc21 | -26% | -12%
COc1ccc(-c2ccc(Nc3ccc(C(=O)N4CCOCC4)cc3)nn2)cc1OC | -17% | .
O=C1C2C3C=CC(C4CC34)C2C(=O)N1/N=C/c1c[nH]c2ccccc12 (stereo unspecified) | -9% | i
CCOC(=O)C1(C)CCCCCN1C(=O)c1ccc(Cl)nc1 (stereo unspecified) | 10% | 11%
O=C(C1=C[C@@H](C2CCCCC2)C[C@@H](OCCCCO)O1)N1CCN(Cc2ccc3c(c2)OCO3)CC1 | -23% | -19%
COc1ccc(/C=C/C(=O)NCCN=C2NS(=O)(=O)c3ccccc32)cc1 | -6% | -7%
CCn1c(C(=O)N2CCC(C(=O)NCc3cccs3)CC2)cc2sccc21 | -16% | i
CCCCNC(=O)CCn1c(=O)c2ccccc2n(Cc2ccccc2C#N)c1=O | 2% | -5%
Cc1ccc(NC(=O)C(=O)NCc2ccco2)cc1 | -1% | -8%
CCOC(=O)c1c(-c2ccc(Cl)cc2)c(C#N)c(=O)n(N)c1N | ? | .
COc1cccc(-c2cc(C(F)(F)F)n3ncc(C(=O)N4CCc5ccccc5C4)c3n2)c1 | -2% | i
Cc1cc(C)c(S(=O)(=O)c2ccccc2)c(N2CCOCC2)n1 | -7% | -9%
CC1CCN(C(=O)CN(Cc2ccc(Cl)cc2)S(C)(=O)=O)CC1 | -16% | i
COc1ccc(Sc2ccc(NC(=O)c3cccc(Cl)c3)cc2C#N)cc1 | -2% | 4%
O=C(CSc1nccc(=O)[nH]1)NN(c1ccccc1)c1ccccc1 | 0% | -5%
O=C1C[C@H]2C=CCc3cccc(c32)CN1Cc1cccc(F)c1 | -7% | -3%
CSc1cccc(CNC(=O)C2CCC(=O)N(CCc3ccccn3)C2)c1 (stereo unspecified) | -20% | i
CCOC(=O)c1noc2ncnc(Nc3cc(Cl)c(OC)cc3OC)c12 | 0% | -4%
CCC(=O)NC(=S)Nc1ccccc1C(F)(F)F | -15% | .
CC(C)N(C(=O)CN1C(=O)NC(c2ccccc2)(c2ccccc2)C1=O)C(C)C | -4% | -3%
CCOc1ccc(NC(=O)CC2C(=O)N(c3cccc(C)c3)C(=O)N2Cc2cccs2)cc1 (stereo unspecified) | -10% | -8%
Remaining list, next part.
SMILES | Vaccinia Venus | VACV mCherry inh
CCOC(=O)c1c(C)nc(C)c(C(=O)OCC)c1-c1ccc(O)c(OC)c1 | -26% | -23%
CCCC1=C([O-])C2N=CC=CC2=[N+](c2ccccn2)C1=O (stereo unspecified) | -6% | -9%
Cc1ccsc1C(=O)OCC(=O)Nc1cccc(S(=O)(=O)N2CCOCC2)c1 | -12% | i
Cc1ccc(-c2nc3nc(C)cc(Nc4ccccc4O)n3n2)cc1 | 3% | -22%
N#Cc1ccc(OC(=O)c2cc(-c3ccc4c(c3)OCCO4)on2)cc1 | -8% | -19%
CN(Cc1cccnc1)C(=O)CNC(=O)COc1ccccc1 | -9% | i
CCOC(=O)c1ccccc1NC(=S)N1CCC(C)CC1 | 0% | -11%
Nc1nnc(-c2cccc(F)c2)s1 | 9% | 2%
Cc1ccc(C)c(NC(=O)CN(C)C(=O)c2cccc(S(=O)(=O)N3CCCC3)c2)c1 | -4% | -13%
